Bioassay records from PubChem BioAssay.
VCAM-1 augmentation: enhancers of VCAM-1 display on endothelial cells, imaging, high-content imaging, pooled HUVEC, TNFa stimulus (AID 457); 10,000 compounds, 0.2% hits; Pooled HUVEC, TNFa-induced VCAM-1 immunofluorescence imaging; hits of this screen are not shown here; calls only;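 active = a top-ranked rise in VCAM-1 staining upheld on image or statistical review; inactive = the rest, including candidates rejected on review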;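 also: compounds tested at 5 µM in the well; cells exposed to compound for 24 hours before fixing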
VCAM-1 down: inhibitors of TNFa-induced VCAM-1 surface display, cell-based, plate reader, pooled HUVEC, TNFa stimulus (AID 454) | HUVEC TNFa-induced VCAM-1 surface immunofluorescence, plate reader; numbers were filed only for top-ranked candidate wells | inhibition, % at 5 µM | 10,000 compounds, 0.2% hits;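 active = compound among top-ranked inhibitors of TNF-induced VCAM-1 adhesion protein staining, with the hit upheld by image or statistical review; inactive = the rest, including hits rejected on review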;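 also: 0% = TNFa with vehicle and 100% = cells without TNFa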
FPR ligand: human FPR ligands by binding competition, primary screen, cell-based, FPRL1 counter-screen, flow cytometry | fMet-Leu-Phe receptor (Homo sapiens), P21462 | inhibition, %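 (tested at 6.7 µM)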 | 24,000 compounds, 0.74% hits | FPR-expressing cells, fluorescent ligand binding;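 also: 0% = buffer wells and 100% = receptor blocker peptide wells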
Target sequence (P21462 whole entry, looked up): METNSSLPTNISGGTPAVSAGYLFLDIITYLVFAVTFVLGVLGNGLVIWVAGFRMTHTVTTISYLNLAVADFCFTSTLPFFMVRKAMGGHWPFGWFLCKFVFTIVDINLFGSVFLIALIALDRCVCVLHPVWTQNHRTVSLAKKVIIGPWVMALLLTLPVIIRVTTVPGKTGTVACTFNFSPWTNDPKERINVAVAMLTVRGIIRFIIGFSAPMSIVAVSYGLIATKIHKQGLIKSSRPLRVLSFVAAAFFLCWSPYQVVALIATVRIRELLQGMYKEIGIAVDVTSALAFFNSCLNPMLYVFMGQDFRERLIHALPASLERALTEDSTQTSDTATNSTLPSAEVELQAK
VCAM-1 down imaging: inhibitors of TNFa-induced VCAM-1 surface display, imaging, high-content imaging, pooled HUVEC, TNFa stimulus (AID 456). 10,000 compounds, 0.2% hits. HUVEC TNFa-induced VCAM-1 surface expression, immunofluorescence imaging; numbers were filed only for top-ranked candidate wells. one-dose inhibition, % at 5 µM; IC50 in µM for titrated hits;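 active = top tenth filtered wells with inhibition above zero that passed visual or statistical confirmation; inactive = the rest, including hits rejected on review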;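 also: 0% = stimulated vehicle wells and 100% = unstimulated cells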
FPRL1 binder: human FPRL1 ligands by binding competition, primary screen, cell-based, FPR counter-screen, flow cytometry | N-formyl peptide receptor 2 (Homo sapiens), P25090 | FPRL1-expressing cells, fluorescent ligand binding inhibition | inhibition, %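 (tested at 6.7 µM)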 | 24,000 compounds, 0.3% hits;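 also: 0% = buffer alone and 100% = receptor blocker peptide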
Target sequence (P25090 whole entry, looked up): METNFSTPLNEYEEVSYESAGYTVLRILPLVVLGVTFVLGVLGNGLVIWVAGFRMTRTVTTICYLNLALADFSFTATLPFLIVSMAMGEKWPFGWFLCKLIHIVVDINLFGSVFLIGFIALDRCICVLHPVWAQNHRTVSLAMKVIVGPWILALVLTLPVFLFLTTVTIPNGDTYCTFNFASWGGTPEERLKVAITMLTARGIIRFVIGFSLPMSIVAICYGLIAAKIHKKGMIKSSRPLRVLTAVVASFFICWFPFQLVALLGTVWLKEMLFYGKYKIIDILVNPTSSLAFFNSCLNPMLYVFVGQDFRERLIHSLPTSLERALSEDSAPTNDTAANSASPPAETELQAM
* = called active by the depositor; i = inactive; nt = no result given.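 The calls were made as follows, unless noted: active = mean above 30%; inconclusive = self-fluorescent; inactive = the rest.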 Only part of the results is shown; the hit share may differ from the screen's.

canonical_smiles	VCAM-1 augmentation	VCAM-1 down	FPR ligand	VCAM-1 down imaging	FPRL1 binder
Cn1c(=O)n(C)c2cc(CN3C(=O)OC(C)(C)C3(C)O)ccc21 (configuration not stated)	nt	nt	1	nt	14
COc1ccc(N(C(=O)c2ccccc2OC)C2C=CS(=O)(=O)C2)c(OC)c1 (configuration not stated)	nt	nt	-7	nt	7
COc1ccc(CCNC(=O)c2ccc3c(=O)n(Cc4ccco4)c(=S)[nH]c3c2)cc1OC	nt	nt	-2	nt	-3
O=C(NCc1ccco1)C1CCCN(S(=O)(=O)c2cnc[nH]2)C1 (configuration not stated)	nt	nt	-4	nt	0
COCCn1c(=O)[nH]c2cc(C(=O)NCc3cccnc3)ccc2c1=O	i	i	-2	i	-4
CN1CCN(Cc2nc3c(c(=O)[nH]c(=O)n3C)n2CCc2ccccc2)CC1	i	i	-1	i	6
CCn1cc(S(=O)(=O)CC(=O)Nc2cc(C)on2)c2ccccc21	nt	nt	6	nt	0
CC(C)COC(=O)C1[C@H]2C(=O)N(Cc3cccs3)C[C@]23C=C[C@H]1O3 (some centres not stated)	i	i	-4	i	-2
Cc1ccc(CCNC(=O)Cn2cccc2)cc1	i	i	5	i	1
CCOC(=O)N1CCC(NC(=O)c2ccc(CS(=O)(=O)c3ccccc3C)o2)CC1	nt	nt	-5	nt	-4
COc1ccc(C2N(c3ccccn3)C(=O)C3CCCN32)c(OC)c1 (configuration not stated)	nt	nt	-2	nt	-2
CC(C)Cc1nc(S(=O)(=O)c2ccc(Cl)cc2)c(N2CCOCC2)o1	i	i	0	i	0
CCOc1ccccc1NC(=O)CCN1CCN(S(=O)(=O)c2ccc(OC)cc2)CC1	nt	nt	9	nt	0
O=C(Cn1c(=O)oc2cc(S(=O)(=O)N3CCCC3)ccc21)NCc1ccccn1	nt	nt	2	nt	0
Cc1nc(C)c(C(=O)Nc2ccccc2-c2ccccc2)o1	nt	nt	-2	nt	4
O=C(CSc1nnc(-c2ccc(Br)o2)n1Cc1ccccc1)c1ccccc1F	i	i	4	i	-3
COc1cccc(-n2c(Cc3cc(=O)[nH]c(=O)[nH]3)nnc2SCC(=O)NC2CCCCC2)c1	nt	nt	-2	nt	-3
COC(=O)c1ccc2c(=O)n(CCN3CCOCC3)c(SCC(=O)c3ccccc3)nc2c1	nt	nt	-5	nt	5
CC(C)c1nnc(NC(=O)C2CCCCC2)s1	i	i	-3	i	-4
C#CCNc1c(C)c(C)nc2ncnn12	i	i	13	i	6

The final 2 records of the part before come first, to join the parts:
canonical_smiles	VCAM-1 augmentation	VCAM-1 down	FPR ligand	VCAM-1 down imaging	FPRL1 binder
CC(C)c1nnc(NC(=O)C2CCCCC2)s1	i	i	-3	i	-4
C#CCNc1c(C)c(C)nc2ncnn12	i	i	13	i	6
CCC(=O)N1c2ccc(S(=O)(=O)N(CCO)Cc3ccccc3)cc2CC1C (configuration not stated)	nt	nt	4	nt	-6
COc1ccc(Nc2ccccc2)c(C)c1	nt	nt	-13	nt	-3
CCOc1ccc(OCC)c(NC(=O)CCn2c(=O)oc3ccccc32)c1	nt	nt	4	nt	-18
Cc1cc(N2CCOCC2)nc2ccc(NC(=O)CCC(=O)N3CCCC(C)C3)cc12 (configuration not stated)	nt	nt	-6	nt	2
CCOc1ccc(-c2cc3nc(C4CCN(C(=O)OC(C)(C)C)CC4)c(C(=O)O)cn3n2)cc1	nt	nt	1	nt	-10
COc1ccc(CN2CCN(C(=O)C3CC(=O)N(C4CCCCCC4)C3)CC2)c(OC)c1OC (configuration not stated)	nt	nt	-2	nt	4
CC1(C)CC(=O)N(CC(=O)N2CCN(c3ncccn3)CC2)c2ccccc2S1(=O)=O	nt	nt	-4	nt	4
CCOC(=O)N1CCC(NC(=O)c2cccc3c2C(=O)N(Cc2cccnc2)C3)CC1	nt	nt	0	nt	-7
Cc1cc(C)cc(N2C(=O)CC(N3CCOCC3)C2=O)c1 (configuration not stated)	i	i	6	i	0
CCc1nnc(NC(=O)OCc2ccccc2)s1	i	i	4	i	4
Cc1ccc(C)c(C2=CSC3=NCCN23)c1	nt	nt	-5	nt	3
COc1ccc(C)cc1NC(=O)CN(Cc1nnc(-c2ccc(Cl)cc2)o1)C1CCCC1	i	i	-3	i	-9
CCn1ncc(Br)c1C(=O)Nc1cc(C(=O)OC)ccc1C(=O)OC	nt	nt	0	nt	4
O=S(=O)(c1ccc2c(c1)OCCO2)N1CCN(Cc2ccc3c(c2)OCO3)CC1	i	i	17	i	2
COC(=O)CNc1nc(-c2ccccc2F)nc2ccccc12	nt	nt	-5	nt	1
O=C(O)C1CCCCC1C(=O)NCCCN1CCOCC1 (configuration not stated)	nt	nt	-1	nt	2
COc1ccccc1N(C)S(=O)(=O)c1ccc(C(=O)NC2=NCCS2)cc1	i	i	0	i	1
CCCOc1ccc(/C(O)=C2/C(=O)C(=O)N(CCCn3ccnc3)C2c2cccs2)cc1 (configuration not stated)	nt	nt	6	nt	1
CCn1[nH]c(=O)c(=Nc2c(C)n(C)n(-c3ccccc3)c2=O)cc1-c1ccc(Cl)cc1	nt	nt	4	nt	-1
Cc1ccc(S(=O)(=O)Cn2nnnc2CN(Cc2ccco2)CC2CCCO2)cc1 (configuration not stated)	i	i	-6	i	-2
CCOc1ccccc1Nc1nnc(Cc2ccccc2Cl)c(=O)[nH]1	nt	nt	26	nt	-1
CCCS(=O)(=O)NCCc1cc2cc(C)c(C)cc2[nH]c1=O	i	i	-3	i	-1
CCSc1nnc(NC(=O)CCNS(=O)(=O)c2cc(Br)cnc2N)s1	i	i	-1	i	-4
CCOc1cccc(-c2nnc3sc(COc4ccc(OC)cc4)nn23)c1	i	i	-5	i	-1
COc1ccc(CCNC(=O)c2nnn(-c3ccc4c(c3)OCCO4)c2N)cc1OC	nt	nt	0	nt	-1
Cc1nn(C)c(C)c1S(=O)(=O)N1CCC(C(=O)NC2CCCCCC2)CC1	nt	nt	0	nt	-3
CCN1CCN(c2cc(C)c3cc(NC(=O)c4cncc(Br)c4)ccc3n2)CC1	nt	nt	5	nt	-2
CCOC(=O)C1=C(c2ccccc2)NC(SCC(=O)Nc2cccc(C)c2)=C(C#N)C1c1ccco1 (configuration not stated)	nt	nt	-5	nt	-1
Cc1ccc2c(c1)-c1c(cnn1CC(=O)NC(C)CCc1ccco1)CO2 (configuration not stated)	i	i	3	i	-4
COc1ccc(S(=O)(=O)NCc2ccc(C(=O)N3CCN(c4ccccn4)CC3)cc2)cc1	nt	nt	2	nt	-3
CN(C)C(=O)N1CCCC(C(=O)NCc2ccccc2)C1 (configuration not stated)	i	i	3	i	-2
CCCN1Cc2cccc(C(=O)NCCCOC(C)C)c2C1=O	nt	nt	-1	nt	1
COc1ccc(N2CCN(C(=O)CSc3ccccc3N)CC2)cc1	i	i	-9	i	0
O=C(Nc1ccc2c(c1)OCO2)C(c1ccc(Cl)cc1)N1CCC2(CC1)OCCO2 (configuration not stated)	nt	nt	-17	nt	-10
Cc1ccc(C2C=C(c3ccc4c(c3)OCO4)Nc3ncnn32)cc1 (configuration not stated)	nt	nt	8	nt	-5
COC(=O)Sc1nnc(-c2ccc(Br)cc2)o1	nt	nt	-4	nt	-4
CC(C)c1ccc(O)c(NC(=O)c2ncn[nH]2)c1	nt	nt	-4	nt	-2
CCOC(=O)c1nnn(-c2nonc2N)c1CSc1ccccn1	nt	nt	-16	nt	6
Cc1ccccc1NC(=O)Cc1nnc(SCC(=O)N2CCN(c3ccccc3)CC2)n1C	i	i	1	i	5
CCOC(=O)Cn1c(=O)oc2cc(S(=O)(=O)Nc3ccc(F)cc3)ccc21	nt	nt	-13	nt	-5
COc1ccc(OC)c2[nH]c(=O)c(CCNC(=O)c3ccc(S(=O)(=O)N4CCCC4)cc3)cc12	nt	nt	0	nt	5
COCCCC/C(=N\OCCN)c1ccc(C(F)(F)F)cc1	i	i	-1	i	2
CC(C)(C)/C(O)=C(/C#N)c1nc2ccccc2[nH]1	nt	nt	3	nt	-9
CCOc1ccc(-c2nc(-c3ccccc3)no2)cc1OCC	nt	nt	15	nt	4
O=C(CN(C(=O)CCC(=O)Nc1nccs1)c1ccccc1F)NCC1CCCO1 (configuration not stated)	i	i	11	i	6
Cc1cc(C)n(-c2nc3c(c(=O)n(Cc4ccc(Cl)c(Cl)c4)c(=O)n3C)n2C)n1	i	i	-4	i	-2
Cc1ccc(-n2c(=O)[nH]cc(C(=O)Nc3ccc4c(c3)OCCO4)c2=O)cc1C	nt	nt	4	nt	-2
CCOC(=O)c1c(N)nn(C(=O)C(C)C)c1-c1ccccc1	i	i	-9	i	2
Cc1ccc(-n2c(Cc3cccn3C)nnc2SCC(=O)Nc2ccc3c(c2)OCO3)cc1	nt	nt	15	nt	11
Cc1cccn2c(=O)c3cc(C(=O)Nc4ccc(N(C)C)cc4)n(C)c3nc12	nt	nt	0	nt	-4
COc1ccccc1-c1nnc(SCc2ccccn2)n1C	i	i	-8	i	-1
CCC(C)NC(=O)c1ccc(NC(=O)C2CCCO2)cc1 (configuration not stated)	nt	nt	2	nt	-2
CCc1nnc(NC(=O)CSc2nnc(-c3ccc(OC)cc3)n2C)s1	i	i	11	i	-2
Cc1ccc(-n2ncc3c(N4CCCC(C)C4)ncnc32)c(C)c1 (configuration not stated)	i	i	-3	i	11
CCOC(=O)c1cnn(CCOC(=O)Cc2cccs2)c1NC(=O)Cc1cccs1	nt	nt	4	nt	10
CCNS(=O)(=O)c1ccc(NC(=O)Cn2nc(C(F)(F)F)cc2C)cc1	nt	nt	1	nt	-2
CCCCNC(=O)CC1N=C2c3ccccc3N=C(SCC(=O)Nc3ccc(OC)cc3)N2C1=O (configuration not stated)	nt	nt	11	nt	-1
CC(C)CC1NC2(C(=O)N(C)c3ccccc32)C2C(=O)N(C(C)C)C(=O)C12 (configuration not stated)	i	i	-3	i	5
CCCSCCCNC(=O)CC1Oc2ccccc2NC1=O (configuration not stated)	nt	nt	0	nt	2
CCCCCCC1/C(=N/O)CCC1C(=O)OC (configuration not stated)	i	i	0	i	3

The listing continues:
canonical_smiles	VCAM-1 augmentation	VCAM-1 down	FPR ligand	VCAM-1 down imaging	FPRL1 binder
CCCS(=O)(=O)C(=C1Nc2ccccc2N1)S(=O)(=O)CCC	i	i	-2	i	-2
N#CCSc1nc(Nc2ccc3c(c2)OCO3)c2ccccc2n1	nt	nt	2	nt	-2
COc1ccc(NC(=O)Cn2nnc(-c3ccccc3F)n2)cc1Cl	i	i	-7	i	0
CCCCn1c(=O)c(Cc2ccccc2)c(O)c2ccccc21	nt	nt	-5	nt	-4
CC(=O)NC(O)C(=O)c1ccco1 (configuration not stated)	nt	nt	-4	nt	2
O=C(CSc1nnnn1-c1ccc2c(c1)OCO2)NCc1cccs1	i	i	5	i	5
C=CCSc1nc(N)c2c(C)c(C)sc2n1	i	i	1	i	-5
Cc1cccc(Nc2nc3c(c(=O)n(C)c(=O)n3C)n2Cc2ccccc2)c1	i	i	4	i	1
Cc1cc(OCC(=O)Nc2ccc3oc(-c4ccncc4)nc3c2)ccc1Cl	i	i	-8	i	2
N#C/C(C(=O)N1CCOCC1)=C1/SC=C(c2ccccc2)N1c1ccccc1	i	i	2	i	-2
O=c1cc(N2CCc3ccccc32)[nH]c(=O)n1-c1ccccc1	nt	nt	3	nt	0
CCn1c(SCc2nc3ccccc3c(=O)[nH]2)nnc1-c1cccnc1	i	i	1	i	0
CC(C)NCC(O)COc1ccc(CC(N)=O)cc1 (configuration not stated)	i	i	3	i	10
CCOc1ncccc1C(=O)OCC(=O)Nc1ncc(C(F)(F)F)cc1Cl	i	i	22	i	8
COc1ccc(OC)c(NC(=O)c2nnn(CCc3ccccc3)c2N)c1	nt	nt	-10	nt	-3
CC(C)C1N=C2c3ccccc3N=C(SCc3cc(=O)n4cc(Cl)ccc4n3)N2C1=O (configuration not stated)	nt	nt	5	nt	7
C=CCn1c(SCC(=O)N2CCCC2)nc2cc(C(=O)NCC3CCCO3)ccc2c1=O (configuration not stated)	nt	nt	-2	nt	-2
